quorum sensing: Vibrio cholerae quorum sensing activators, luminescence (AID 686977) | V. cholerae quorum sensing reporter, luminescence, 6 h; higher luminescence means a stronger effect; most inactives read 0 | one-dose luminescence at 50 µM unless noted; EC50 in µM for titrated hits | 9,400 tested, under 10 active;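 active = light above mean plus 3 SD and confirmed in a dose series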;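 note: raw light counts without normalisation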
Numbers without * were called inactive; [ ] = dose if it differs, or a comment. A portion of the library, so the mix of outcomes need not match the whole.

#1 CC(=O)c1ccc2c(c1)N(CCCN(C)C)c1ccccc1S2
- quorum sensing: 40[10 µg/mL]
#2 Cc1nc2ccccn2c(=O)c1CCN1CCC(C(=O)c2ccc(F)cc2)CC1
- quorum sensing: 0[10 µg/mL]
#3 C1CCC(C(CC2CCCCN2)C2CCCCC2)CC1 (stereo not given)
- quorum sensing: 0[10 µg/mL]
#4 c1ccc(CC2=NCCN2)cc1
- quorum sensing: 320[10 µg/mL]
#5 CC(COc1ccccc1)NC(C)C(O)c1ccc(O)cc1 (stereo not given)
- quorum sensing: 0[10 µg/mL]
#6 COc1ccccc1N1CCN(CCCNc2cc(=O)n(C)c(=O)n2C)CC1
- quorum sensing: 0[10 µg/mL]
#7 c1ccc(CN(CC2=NCCN2)c2ccccc2)cc1
- quorum sensing: 0[10 µg/mL]
#8 O=C(c1ccc(F)cc1)C1CCN(CCn2c(=O)[nH]c3ccccc3c2=O)CC1
- quorum sensing: 0[10 µg/mL]
#9 Oc1ccc(/C=C/c2cc(O)cc(O)c2)cc1
- quorum sensing: 40[10 µg/mL]
#10 CCN(CC)CCNC(=O)c1cc(Cl)c(N)cc1OC
- quorum sensing: 40[10 µg/mL]
#11 CC(C(=O)O)c1ccc(C(=O)c2cccs2)cc1 (stereo not given)
- quorum sensing: 0[10 µg/mL]
#12 OCCN1CCN(CCCN2c3ccccc3Sc3ccc(Cl)cc32)CC1
- quorum sensing: 0[10 µg/mL]
#13 Cc1c(NC(=O)c2cccnc2)c(=O)n(-c2ccccc2)n1C
- quorum sensing: 0[10 µg/mL]
#14 O=C(CCNNC(=O)c1ccncc1)NCc1ccccc1
- quorum sensing: 40[10 µg/mL]
#15 CCCNC(C)C(=O)Nc1c(C)csc1C(=O)OC (stereo not given)
- quorum sensing: 40[10 µg/mL]

#16 CN1CCOC(c2ccccc2)c2ccccc2C1 (stereo not given)
- quorum sensing: 0[10 µg/mL]
#17 CN(C)CCOC(C)(c1ccccc1)c1ccccn1 (stereo not given)
- quorum sensing: 0[10 µg/mL]
#18 CC1COc2c(N3CCN(C)CC3)c(F)cc3c(=O)c(C(=O)O)cn1c23 (stereo not given)
- quorum sensing: 0[10 µg/mL]
#19 CN1CCN(C(c2ccccc2)c2ccccc2)CC1
- quorum sensing: 160[10 µg/mL]
#20 CC(=O)c1ccc(S(=O)(=O)NC(=O)NC2CCCCC2)cc1
- quorum sensing: 0[10 µg/mL]
#21 Cc1cc(-c2ccccc2)nnc1NCCN1CCOCC1
- quorum sensing: 0[10 µg/mL]

Six entries picked at random from those above, as already listed:
#16 CN1CCOC(c2ccccc2)c2ccccc2C1 (stereo not given)
- quorum sensing: 0[10 µg/mL]
#18 CC1COc2c(N3CCN(C)CC3)c(F)cc3c(=O)c(C(=O)O)cn1c23 (stereo not given)
- quorum sensing: 0[10 µg/mL]
#13 Cc1c(NC(=O)c2cccnc2)c(=O)n(-c2ccccc2)n1C
- quorum sensing: 0[10 µg/mL]
#7 c1ccc(CN(CC2=NCCN2)c2ccccc2)cc1
- quorum sensing: 0[10 µg/mL]
#11 CC(C(=O)O)c1ccc(C(=O)c2cccs2)cc1 (stereo not given)
- quorum sensing: 0[10 µg/mL]
#9 Oc1ccc(/C=C/c2cc(O)cc(O)c2)cc1
- quorum sensing: 40[10 µg/mL]

Screen by screen, from the results shown.
Compounds 16 to 21 in quorum sensing: 0[10 µg/mL], 0[10 µg/mL], 0[10 µg/mL], 160[10 µg/mL], 0[10 µg/mL], 0[10 µg/mL]

Screens: PubChem, Southern Research Specialized Biocontainment Screening Center
